ugtP null kill – growth inhibition of ugtP-null S. aureus, primary screen, RN4220 ugtP deletion, OD600. 330,000 compounds, 0.54% hits. growth inhibition, % (no concentration beside the values). 16 h; some inactives read as strong as hits;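 active = z-score under -3 and OD600 up to 0.15 on both plates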;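 also: plate controls were untreated wells for no effect and antibiotic for full effect; wells of about 80 µL received 100 nL stock; the first replicate is given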
PrP 5UTR inh – inhibition of PrP 5' UTR reporter expression. cell-based PrP 5' UTR mRNA reporter, plate reader. 340,000 compounds, 0.35% hits. inhibition, % (test concentration not listed);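 active = every replicate at 50% or more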;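 also: 0 = median of the neutral control wells; tested in H4 reporter cells; numbers are from one replicate; inactives centre near -14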
BJeLR viability – MLPCN primary cell-based screen for lethality selective to Ras in HRASV12 cells. 300,000 compounds, 0.17% hits. BJeLR (HRASV12) viability, CellTiter-Glo ATP luminescence, 48 h; reference of the scale not given here. AID 1554, 2009. inhibition, % (test concentration not listed);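 active = replicate mean above 50%; inconclusive = above 50% but judged a plate artefact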;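 also: 50 nL library stock added to about 25 µL; numbers are from one replicate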
Autofluor counter – compound fluorescence in toxin protease inhibitor counterscreen; compound autofluorescence counterscreen, microsphere flow cytometry; stronger effect = higher value; fluorescence intensity (concentration not given with the values); 360,000 compounds, 3.1% hits; AID 624483;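 active = at least 3 SD above the mean of all compounds, about 16000 in these data; inconclusive = too few beads counted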;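 also: 100 nL of 1 mM stock went into each well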
Mtb hypoxia inh – PubChem AID 1159583; M. tuberculosis hypoxia-regulated fluorescent reporter, fluorescence; fluorescence inhibition, % (concentration not given with the values); 300,000 compounds, 0.1% hits;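 active = 35 to 45% if threefold the growth effect, above 45% if 1.5-fold the growth effect; inactive = the rest, general growth blockers included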;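 also: wells of about 50 µL received 100 nL stock; 0% = vehicle wells and 100% = reference inhibitor wells; whole bacteria with a GFP reporter of the hypoxia response; strong numbers were not always called active; many hits fall short of the cut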
RN4220 kill – growth inhibition of S. aureus RN4220, primary screen, OD600; 16 h; AID 1259311, 2017; inhibition, % (test concentration not listed); 330,000 compounds, 0.33% hits;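 active = z-score of -3 or lower and OD600 up to 0.18 on both plates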;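 also: plate controls were untreated cells for no effect and reference antibiotic for full effect; stock transfer was 100 nL into about 80 µL; one replicate is shown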
Mtb hypoxia inh growth – recorded beside Mtb hypoxia inh, whose call it bears; growth inhibition, %; measured here: M. tuberculosis growth (absorbance);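 0% = vehicle and 100% = reference antibiotic; read after six days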
* hit, by the source's call; ? = inconclusive; nt = no result given.

No.	structure	ugtP null kill	PrP 5UTR inh	BJeLR viability	Autofluor counter	Mtb hypoxia inh	Mtb hypoxia inh growth	RN4220 kill
1	CCc1nnc(NC(=O)CCC(=O)N2CCN(S(=O)(=O)c3cc(Cl)ccc3OC)CC2)s1	-3.1	-1.5	1.0	5538	-9.9	7.6	1.7
2	CCCS(=O)(=O)N1CCN(Cc2c[nH]c3ccccc23)CC1	0.5	-9.9	-0.2	3511	5.8	0.9	4.5
3	Cc1cc(C)c(C(=O)OCC(=O)Nc2cccc(S(=O)(=O)N3CCCCC3)c2)c(C)c1	-8.6	-19.8	-2.6	4928	2.5	-3.4	-3.9
4	O=C(NCc1cccc(Cl)c1)c1cccnc1	0.6	-14.8	-1.5	18154*	13.0	18.1	-0.1
5	O=C(C1=C[C@H](c2coc3ccccc3c2=O)C[C@H](OCc2ccc(CO)cc2)O1)N1CCN(Cc2ccc3c(c2)OCO3)CC1	nt	-1.7	0.2	2954	nt	nt	nt
6	CN[C@H]1CCc2cc(OC)c(OC)c(OC)c2-c2ccc(OC)c(=O)cc21	nt	43.9	26.4	4345	nt	nt	nt
7	COc1ccc(OC)c(S(=O)(=O)NCC(c2ccco2)N2CCc3ccccc3C2)c1 (stereo not drawn)	8.7	-13.3	-1.4	6478	7.7	1.0	3.8
8	COc1ccc(CCN2C(=O)c3[nH]nc(-c4ccccc4O)c3C2c2ccccc2)cc1OC (stereo not drawn)	-4.9	-4.1	-10.1	6505	-7.7	1.3	8.6
9	CC(=O)Nc1ncnc2c1c(-c1ccc(Cl)cc1)nn2C(C)(C)C	10.5	-9.6	4.7	4550	9.0	8.5	3.4
10	O=C(CCc1nnc2ccc(N3CCOCC3)nn12)Nc1ccc(F)cc1F	5.6	-11.5	-5.3	5501	3.2	1.5	2.8
11	O=C(OCC(=O)N1CCOCC1)c1cccc(S(=O)(=O)N2CCCc3ccccc32)c1	2.6	-12.1	-3.4	4989	15.2	14.0	6.0
12	COc1cccc(CN(C)C(=O)CCN(c2ccccc2)S(=O)(=O)c2ccc(C)cc2)c1OC	12.1	-6.7	4.7	6087	6.1	4.4	2.3
13	CCC(=O)Nc1cccc(NC(=O)CN2CCN(c3ccccc3OC)CC2)c1	-1.0	-5.9	10.7	2704	7.1	-3.3	2.6
14	CC1CN(C(=O)c2ccc(Cl)c(S(=O)(=O)NCc3ccco3)c2)CC(C)O1 (stereo not drawn)	-1.4	-32.7	nt	3869	3.1	2.5	2.1
15	COc1ccc(NCC(=O)N/N=C2\CCCC(C)C2)cc1 (stereo not drawn)	nt	-2.8	-0.4	2753	nt	nt	nt
16	Cc1cccc(NC(=O)Cn2c(/C=C/c3ccccc3)nc3ccccc32)c1	-18.4	-35.6	-4.5	2245	-9.5	2.3	-4.4
17	Cc1cccc(C2NS(=O)(=O)N=C2N)c1 (stereo not drawn)	7.7	-17.7	7.7	?	15.2	0.9	5.5
18	Cc1ccc(SC(c2ccc(C)cc2)C(Cn2cncn2)C(=O)c2ccccc2)cc1 (stereo not drawn)	0.6	-4.4	-2.2	2440	3.7	9.1	9.3
19	CN(CC(=O)Nc1ccc(Cl)cc1F)C1=NS(=O)(=O)c2ccccc21	2.2	2.5	nt	3877	-8.9	5.7	2.3
20	COc1ccc(C)cc1NC(=O)c1ccc(NS(=O)(=O)c2c(C)noc2C)cc1	-2.9	-7.2	6.7	5441	-1.4	3.4	-3.1
21	NC(=O)NC(CC(=O)OCC(=O)NC(=O)NCc1ccco1)c1ccc(Cl)cc1 (stereo not drawn)	6.7	-10.0	-9.9	4509	nt	nt	-1.0
22	CC12CCC(C(=O)N(c3ccccc3Cl)C1=O)C2(C)C (stereo not drawn)	9.0	-6.0	-1.6	2508	3.4	-2.8	7.3
23	CC(=O)NC12CC3CC(C1)CC(C(=O)OCC(=O)c1cc(C)n(C)c1C)(C3)C2	8.3	6.4	nt	6471	5.0	6.1	7.5
24	O=S(Cc1ccc(Br)cc1)Cc1nnc(SCc2ccc(Cl)cc2)n1-c1ccccc1 (stereo not drawn)	-17.9	-5.8	0.7	10168	0.5	4.3	-3.3
25	CC(=NNC(=O)c1ccc(O)cc1)c1ccc(NC(=O)Cc2ccccc2)cc1	7.3	nt	nt	nt	6.0	4.4	-1.1
26	CCc1cc(=O)oc2cc(OCC(=O)NCCCn3ccnc3)ccc12	-4.5	-2.7	3.5	4534	-4.9	-3.2	-7.3
27	O=C(NNc1nc2cc3c(cc2s1)OCCO3)c1ccc(F)cc1	11.0	-13.4	5.8	4452	14.0	0.5	6.5
28	COC(=O)CSc1cc(C(F)(F)F)nc(-c2ccccn2)n1	-4.6	-25.9	-13.0	8920	6.8	9.3	3.5
29	CCOC(=O)c1cc(CC)sc1NC(=O)c1ccc2c(c1)OCCO2	9.1	-14.2	0.1	3035	nt	nt	-1.4
30	OC(c1ccccc1)(c1ccc(F)cc1)C(c1ccccc1)N1CCOCC1 (stereo not drawn)	18.8	-17.5	11.5	2920	12.1	8.3	1.8
31	S=C(Nc1ccccn1)c1ccccn1	0.0	-69.2	4.7	4612	nt	nt	-7.9
32	O=C1N(Cc2ccc(F)cc2Cl)c2ccccc2C12OCCCO2	16.1	-30.8	-0.1	19128*	2.7	1.9	-0.3
33	COc1ccc2cc(CN(C(=O)Nc3ccccc3)C3CCCC3)c(=O)[nH]c2c1	-12.2	1.6	-0.5	23679*	-10.9	3.1	-11.2
34	Cc1c(/C=N\NC(=O)C2COc3ccc(C(C)(C)C)cc3O2)c2ccccc2n1C (stereo not drawn)	nt	-17.6	0.3	1971	nt	nt	nt
35	CCCCON1C(=O)c2cccc3cccc(c23)C1=O	6.3	-8.5	-5.8	3683	7.3	9.5	3.2
36	CCCCCC1CC(CC(=O)Nc2ccc([N+](=O)[O-])cc2)C(=O)O1 (stereo not drawn)	-6.1	-10.7	-10.9	2599	3.5	1.8	-0.8
37	Cc1cc(C(=O)CN2C(=O)NC(C)(c3cccc(Br)c3)C2=O)c(C)n1Cc1ccco1 (stereo not drawn)	-13.7	-20.4	10.0	2239	nt	nt	-4.2
38	Cc1ccc(/C(=N\S(=O)(=O)c2ccc(Br)cc2)Nc2ccccc2C)cc1	-1.5	-10.1	8.4	5924	3.9	-3.3	6.4
39	CCN(Cc1ccccc1)S(=O)(=O)c1ccc(C(=O)N2CCN(c3nc4ccccc4s3)CC2)cc1	-2.0	-22.6	9.3	2234	7.4	1.5	2.7
40	COc1ccc(CCNC(=S)N2CCN(S(=O)(=O)c3ccccc3)CC2)cc1	-0.5	-10.7	-3.4	6804	3.6	3.4	2.4
41	c1ccc(CNC2=NCCC2)nc1	-3.8	-4.2	1.1	4425	-0.4	-4.8	-3.5
42	CN(C)S(=O)(=O)c1ccc(NC(=O)COc2ncnc3c2cnn3-c2ccccc2)cc1	0.8	-20.1	1.5	1994	-2.4	-2.6	3.1
43	Cc1cc(C(=O)OCC(=O)N2C(C)CCCC2C)c2ccccc2n1 (stereo not drawn)	8.9	-19.0	nt	3226	5.2	2.9	3.6
44	O=[N+]([O-])c1cc(Cl)ccc1N1CCN(c2cccc(C(F)(F)F)c2)CC1	-21.1	1.8	12.3	11634	0.8	12.9	6.6
45	COc1ccc(S(=O)(=O)N2CCN3CCCC3C2)cc1 (stereo not drawn)	2.6	-11.7	6.7	3997	-3.1	-3.5	1.1
46	COC(=O)c1c(NC(=O)CSc2nnnn2-c2ccccc2)sc2c1CCC(C(C)(C)C)C2 (stereo not drawn)	7.1	7.1	11.7	23374*	-2.9	-3.4	1.7
47	CN(c1ccccc1)c1nc(N2CCCC2)nc(-n2ccnc2)n1	1.4	3.3	4.1	3272	nt	nt	-8.9
48	CCC(=O)c1ccc(OCC(=O)OCC(=O)N2CCN(c3ccc(OC)cc3)CC2)cc1	2.8	-17.5	12.8	5829	-0.5	-3.0	5.5
49	COc1ccc(NC(=O)CCOc2ccccc2C)cc1S(=O)(=O)N1CCCCC1	5.8	-17.4	-5.8	5889	1.4	-0.5	-3.3
50	Cc1c(NC(=O)C(C)OC(=O)c2cccc([N+](=O)[O-])c2)c(=O)n(-c2ccccc2)n1C (stereo not drawn)	-1.1	-18.1	-12.3	2123	-6.5	-1.7	5.2
51	O=C(CCC(=O)Nc1ccc(F)cc1)N/N=C/c1ccccc1O	nt	-21.1	-6.6	2304	nt	nt	nt
52	CN1CCN(c2ccccc2NC(=O)c2cc3c(s2)-c2ccccc2OC3)CC1	-0.8	nt	-1.3	?	14.2	9.2	-5.9
53	O=C(OCC1OC(n2ccc(=O)[nH]c2=O)C2OC12)c1ccccc1 (stereo not drawn)	1.5	-6.1	nt	4204	12.2	6.1	2.8
54	Cn1nnc2cc(C(=O)N3CCN(c4ccccc4)CC3)ccc21	2.8	-10.1	16.9	2844	nt	nt	3.9
55	CCOc1cc2[nH]c(=S)n(CC3CCCO3)c(=O)c2cc1OCC (stereo not drawn)	-10.4	-27.7	-2.4	9157	1.6	-3.6	3.8
56	Cn1c(Cn2c(=O)sc3ccccc32)nnc1SCC(=O)NC1CCCCC1	2.0	-4.6	-0.6	4336	nt	nt	0.5

New compounds follow
No.	structure	ugtP null kill	PrP 5UTR inh	BJeLR viability	Autofluor counter	Mtb hypoxia inh	Mtb hypoxia inh growth	RN4220 kill
57	O=C(NC(Cc1ccc(O)cc1)C(=O)O)c1ccncc1 (stereo not drawn)	-4.7	nt	nt	nt	-2.6	1.2	0.3
58	CC(C(=O)NC1CCCC1)N1CCN(Cc2ccccc2)CC1 (stereo not drawn)	7.6	-22.0	0.8	4743	4.7	-1.5	1.3
59	Cc1cc(OCC(=O)N(C(C)C)C(C)C)ccc1Cl	-55.1	-0.6	6.5	4326	8.9	11.7	13.7
60	Cc1ccc(C2=NS(=O)(=O)N(C)C(C(=O)N3CCCCC3)=C2)cc1	-3.0	-15.7	-6.1	5442	2.7	4.5	5.2
61	Cc1ccc2cc(CNC(C)C)c(=O)[nH]c2c1	-0.8	-22.1	3.0	3370	6.1	5.8	4.9
62	O=C(NCc1cccnc1)C(C(=O)c1ccc(F)cc1)n1ccccc1=O (stereo not drawn)	-5.0	-13.9	9.8	22039*	-12.2	5.0	-7.0
63	CC(Oc1ccc(Cl)cc1Cl)c1nc(-c2ccc(NC(=O)c3cccnc3)cc2)no1 (stereo not drawn)	-15.1	-13.8	72.3*	2580	nt	nt	-11.1
64	Cc1ccc2oc(-c3ccccc3)c(C(=O)O)c(=O)c2c1	3.6	-106.3	-18.7	5300	nt	nt	8.0
65	COc1ccc2nc(N3C(=O)C(O)=C(C(=O)c4ccco4)C3c3ccc(C)o3)sc2c1 (stereo not drawn)	26.7	-2.8	nt	4769	4.9	-3.4	19.2

Gathered by group: the compounds so far with fluorine.
No.	structure	ugtP null kill	PrP 5UTR inh	BJeLR viability	Autofluor counter	Mtb hypoxia inh	Mtb hypoxia inh growth	RN4220 kill
10	O=C(CCc1nnc2ccc(N3CCOCC3)nn12)Nc1ccc(F)cc1F	5.6	-11.5	-5.3	5501	3.2	1.5	2.8
19	CN(CC(=O)Nc1ccc(Cl)cc1F)C1=NS(=O)(=O)c2ccccc21	2.2	2.5	nt	3877	-8.9	5.7	2.3
27	O=C(NNc1nc2cc3c(cc2s1)OCCO3)c1ccc(F)cc1	11.0	-13.4	5.8	4452	14.0	0.5	6.5
28	COC(=O)CSc1cc(C(F)(F)F)nc(-c2ccccn2)n1	-4.6	-25.9	-13.0	8920	6.8	9.3	3.5
30	OC(c1ccccc1)(c1ccc(F)cc1)C(c1ccccc1)N1CCOCC1 (stereo not drawn)	18.8	-17.5	11.5	2920	12.1	8.3	1.8
32	O=C1N(Cc2ccc(F)cc2Cl)c2ccccc2C12OCCCO2	16.1	-30.8	-0.1	19128*	2.7	1.9	-0.3
44	O=[N+]([O-])c1cc(Cl)ccc1N1CCN(c2cccc(C(F)(F)F)c2)CC1	-21.1	1.8	12.3	11634	0.8	12.9	6.6
51	O=C(CCC(=O)Nc1ccc(F)cc1)N/N=C/c1ccccc1O	nt	-21.1	-6.6	2304	nt	nt	nt
62	O=C(NCc1cccnc1)C(C(=O)c1ccc(F)cc1)n1ccccc1=O (stereo not drawn)	-5.0	-13.9	9.8	22039*	-12.2	5.0	-7.0

Screens (PubChem)
